Bioassay records (PubChem)
Rango-impB inh – qHTS Assay for Inhibitors of Rango (Ran-regulated importin-beta cargo) - Importin beta complex formation | Importin subunit beta-1 (Homo sapiens), Q14974 | actives 0.031% (n = 340,000) | AID 540263, 2011 | Rango CFP/YFP FRET sensor + importin beta, 45 min | Potency, µM (titrated, usually from 92.2 µM), for the others: at the highest dose inhibition of complex formation; active = rising FRET ratio curve, often small or poorly fitted; inconclusive = mostly compound fluorescence or quenching in the first reads; inactive = flat curves in all reads;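 note: potency is the fitted concentration of half-maximal effect; 0% = DMSO wells and 100% = buffer wells lacking importin beta; nearly all actives have a fitted effect of over 15% in size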
Target sequence (Q14974 whole entry, looked up): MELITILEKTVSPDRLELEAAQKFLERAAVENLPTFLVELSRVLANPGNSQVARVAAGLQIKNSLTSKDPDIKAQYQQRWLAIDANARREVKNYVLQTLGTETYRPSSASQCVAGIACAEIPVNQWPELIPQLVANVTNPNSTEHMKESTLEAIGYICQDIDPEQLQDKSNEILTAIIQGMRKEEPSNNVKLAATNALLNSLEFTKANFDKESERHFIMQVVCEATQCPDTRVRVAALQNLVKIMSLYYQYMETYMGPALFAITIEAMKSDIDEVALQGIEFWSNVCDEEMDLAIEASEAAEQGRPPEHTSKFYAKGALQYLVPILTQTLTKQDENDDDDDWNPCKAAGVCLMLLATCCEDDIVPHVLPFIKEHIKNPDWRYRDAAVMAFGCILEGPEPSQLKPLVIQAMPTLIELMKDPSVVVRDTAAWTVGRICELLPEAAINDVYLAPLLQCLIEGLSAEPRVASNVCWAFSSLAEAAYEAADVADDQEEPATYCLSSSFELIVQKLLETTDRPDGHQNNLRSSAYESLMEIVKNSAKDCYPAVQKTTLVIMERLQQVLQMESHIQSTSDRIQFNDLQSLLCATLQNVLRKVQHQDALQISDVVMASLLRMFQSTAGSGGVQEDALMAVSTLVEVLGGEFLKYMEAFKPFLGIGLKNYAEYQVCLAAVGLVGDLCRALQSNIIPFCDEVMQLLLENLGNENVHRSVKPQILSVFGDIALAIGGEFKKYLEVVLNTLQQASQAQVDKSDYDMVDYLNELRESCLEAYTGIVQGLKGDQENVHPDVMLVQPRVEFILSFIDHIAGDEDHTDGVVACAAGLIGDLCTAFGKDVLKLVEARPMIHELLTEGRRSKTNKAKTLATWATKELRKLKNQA
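Inhibition scored from the CFP 486 nm/YFP 530 nm FRET ratio 45 min after adding 0.125 microM importin beta to 50 nM Rango biosensor preincubated 5 min with compound (room temperature, PBS with DTT, Tween-20, BSA). No-importin wells as positive control.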
GLA inh pH 4.5 – qHTS Assay for Inhibitors of Human alpha-Galactosidase at pH 4.5; Alpha-galactosidase A (Homo sapiens), P06280; purified enzyme, 4-MU-alpha-Gal fluorescence, pH 4.5; activity change, negative = inhibition, % at 105 µM; 230,000 tested, under 10 active; inconclusive = small, poorly fitted or top-dose-only inhibition, or a rising curve; inactive = flat fitted curve, though single readings scatter; no compound was filed as active;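 note: 0% = full activity with enzyme and -100% = basal without enzyme; dose as in the result columns while the protocol names 77 µM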
Rango release inh – qHTS Assay for Inhibitors of RanGTP induced Rango (Ran-regulated importin-beta cargo) - Importin beta complex dissociation | Snurportin-1 (Homo sapiens) + GTP-binding nuclear protein Ran (Homo sapiens) + Importin … | Biochemical FRET Rango-importin beta, RanGTP-induced dissociation | Potency, µM (doses to about 46.1 µM), inactives show at the top dose activity change, negative = inhibition | actives 0.071% (n = 340,000); active means falling FRET ratio curve, often poorly fitted, with flat reads before Ran was added; inconclusive means other falling curves, or compound fluorescence or quenching; inactive means flat or rising ratio curve;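 note: potency is the fitted concentration of half-maximal effect; % of control where 0% means no effect; nearly all actives have a fitted effect of over 45% in size; -100% = wells without RanGTP and RCC1; the record marks most hits as doubtful in a second field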
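Compounds preincubate 5 min with complex of recombinant Rango and importin beta in PBS with 1 mM DTT. Ran (0.6 uM) loaded with 2 mM GTP plus 0.2 uM RCC1 starts dissociation; FRET is recorded 45 min later.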
miR-21 reporter – qHTS Assay for Modulators of miRNAs and/orActivators of miR-21; Potency, µM (series often up to 38.3 µM), for inactives: top-dose reporter change, positive = more light; 340,000 tested, under 10 active; HeLa miR-21 FLuc reporter, luciferase, 48 h; active = well fitted rising curve with a large enough effect; inconclusive = small, poorly fitted or top-dose-only effect; inactive = no such curve, though single readings can be large or run the other way;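 note: % of control where 0% means no effect; miR-21 action dims this reporter so a rising signal means less miR-21 action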
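HeLa cells stably expressing CMV-driven firefly luciferase with a downstream miR-21 binding sequence, endogenously expressing miR-21, were treated with titrations (up to about 40uM final) for 48 hours at 37 degree Celsius. Luciferase luminescence was read after lysis.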
Numbers without * were called inactive; [ ] = another dose, or the depositor's remark. Only part of the results is shown, so the mix of outcomes need not match the whole.

Screening COc1cc(OC)c2c(c1C(CCN1CCOCC1)c1ccc(N(C)C)cc1)OC(=O)CC2c1ccc(N(C)C)cc1 (configuration not stated) returned Rango-impB inh -3.2%, GLA inh pH 4.5 -2, Rango release inh -2% and miR-21 reporter -6%.
Cc1ccc(OC(=S)Nc2ccc(F)cc2)cc1 was read as Rango-impB inh -1.2%, GLA inh pH 4.5 5, Rango release inh 2% and miR-21 reporter -6%.
For O=C(O)c1cccc(NS(=O)(=O)c2ccc(-c3ccc(S(=O)(=O)Nc4cccc(C(=O)O)c4)cc3)cc2)c1 the results were Rango-impB inh -0.6%, GLA inh pH 4.5 -6, Rango release inh 2% and miR-21 reporter 0%.
Screening CC(C1=C(CCN(C)C)Cc2ccccc21)c1ccccn1 (configuration not stated) returned Rango-impB inh 1.9% and Rango release inh -6%.
`CCCC(C(=O)NC1=NCCS1)c1ccccc1` (configuration not stated) gave Rango-impB inh -5.3%, GLA inh pH 4.5 -10, Rango release inh 0% and miR-21 reporter -2%.
For C=CCn1cc(C(=O)N2CCN(CC)CC2)c(=O)c2cc(S(=O)(=O)N(CC)CC)ccc21 the results were Rango-impB inh -1.3%, Rango release inh -8% and miR-21 reporter -1%.
For CC1(C)CC(C(CC(=O)N2CCCC2)Cc2ccccc2)CCO1 (configuration not stated) the results were Rango-impB inh inconclusive, GLA inh pH 4.5 -5, Rango release inh -9% and miR-21 reporter 2%.
Screening COc1ccc(C2CC(c3cccs3)=NN2C(=O)c2ccccc2)cc1OC (configuration not stated) returned Rango-impB inh 1.3%, Rango release inh -10% and miR-21 reporter -7%.
For Cc1ccc(CN2CCN(Cc3cc(=O)c4ccccc4[nH]3)CC2CCO)o1 (configuration not stated) the results were Rango-impB inh 0.8%, GLA inh pH 4.5 -2, Rango release inh -5% and miR-21 reporter -1%.
Screening CC(=O)Nc1ccc(NC(=O)C(C)OC(=O)c2ccc(S(=O)(=O)N3CCCCC3)cc2)cc1 (configuration not stated) returned Rango-impB inh 4.9% and Rango release inh 23%.

Arranged by SMILES length (descending): some entries from above
Screening CC(=O)Nc1ccc(NC(=O)C(C)OC(=O)c2ccc(S(=O)(=O)N3CCCCC3)cc2)cc1 (configuration not stated) returned Rango-impB inh 4.9% and Rango release inh 23%.
For C=CCn1cc(C(=O)N2CCN(CC)CC2)c(=O)c2cc(S(=O)(=O)N(CC)CC)ccc21 the results were Rango-impB inh -1.3%, Rango release inh -8% and miR-21 reporter -1%.
For CC1(C)CC(C(CC(=O)N2CCCC2)Cc2ccccc2)CCO1 (configuration not stated) the results were Rango-impB inh inconclusive, GLA inh pH 4.5 -5, Rango release inh -9% and miR-21 reporter 2%.

(next part)
Screening CCOC(=O)Cc1csc(SCC(=O)Nc2cc(Cl)ccc2Oc2ccccc2)n1 returned Rango-impB inh -4.8%, GLA inh pH 4.5 -2, Rango release inh -14% and miR-21 reporter 7%.
For CCN1CCN(c2ccc(S(=O)(=O)N3CCCCC3)cc2NC(=O)COc2cc(C)ccc2Cl)CC1 the results were Rango-impB inh 2.0% and Rango release inh 4%.
CC(=O)N1CCN(c2ccccc2NC(=O)c2cc(Br)ccc2Cl)CC1 was read as Rango-impB inh -0.9%, GLA inh pH 4.5 2, Rango release inh 0% and miR-21 reporter -2%.
Cc1nc2[nH]c(=S)n(C)c(=O)c2nc1C was read as Rango-impB inh 2.3%, GLA inh pH 4.5 2, Rango release inh 2% and miR-21 reporter -1%.
Screening COc1ccc(S(=O)Cc2ccc(C(=O)NCc3cccc(OC)c3)o2)cc1 (configuration not stated) returned Rango-impB inh 2.0%, Rango release inh 39% and miR-21 reporter 0%.
Screening COc1ccc2c(c1)OC1(C)CC2C(C(=O)c2ccccc2OC)C(=O)N1 (configuration not stated) returned Rango-impB inh -1.3%, GLA inh pH 4.5 -4, Rango release inh 11% and miR-21 reporter -13%.
COc1ccc(NC(=O)CSc2nc3ncccc3[nH]2)cc1OC was read as Rango-impB inh -3.8%, GLA inh pH 4.5 9, Rango release inh 13% and miR-21 reporter -13%.
CCN(CC)C(=O)[C@H]1CC(CC(=O)NC(C)(C)C)C(=O)N2CCc3c([nH]c4ccccc34)[C@]12C (some centres not stated) was read as Rango-impB inh 3.1% and Rango release inh -8%.
For CSc1oc(-c2ccco2)nc1S(=O)(=O)c1ccc(F)cc1 the results were Rango-impB inh -0.1%, GLA inh pH 4.5 1, Rango release inh -6% and miR-21 reporter 1%.
For COc1ccc(CCNC(=O)c2ccc3c(c2)NC(=O)CS3)cc1OC the results were Rango-impB inh 1.3%, Rango release inh -13% and miR-21 reporter 0%.
For O=C(COC(=O)CCC1CCCC1)Nc1cc(S(=O)(=O)N2CCOCC2)ccc1Cl the results were Rango-impB inh -0.9% and Rango release inh 0%.
Screening COc1ccc(N2CCN(C(=O)CCS(=O)(=O)c3ccc4c(c3)NC(=O)C(C)S4)CC2)cc1 (configuration not stated) returned Rango-impB inh 4.4%, Rango release inh -18% and miR-21 reporter 3%.
COc1cccc(/C=N/NC(=O)CNC(=O)COc2cccc(C)c2)c1O was read as Rango-impB inh -4.1%, GLA inh pH 4.5 -8, Rango release inh -18% and miR-21 reporter 26%.
Cn1c(SCC(=O)Nc2ccc(NC(=O)c3ccccc3)cc2)nnc1-c1ccncc1 was read as Rango-impB inh -1.2%, Rango release inh 12% and miR-21 reporter -5%.
For COC(=O)c1nc(NC(=O)c2ccccc2Cl)n[nH]1 the results were Rango-impB inh -2.3%, GLA inh pH 4.5 -1, Rango release inh 7% and miR-21 reporter 4%.
For CC(C)c1ccc(/C=C2\NC(=S)N(Cc3cccnc3)C2=O)cc1 the results were Rango-impB inh inconclusive, GLA inh pH 4.5 3, Rango release inh inconclusive and miR-21 reporter -1%.
`Nc1nonc1-n1nnc(C(=O)N/N=C/c2cc(Br)ccc2O)c1CSC1=NCCS1` gave Rango-impB inh inconclusive, GLA inh pH 4.5 -5, Rango release inh inconclusive and miR-21 reporter 25%.
Screening CN1CN(C)C(c2ccncc2)=C1c1ccncc1 returned Rango-impB inh -0.6%, GLA inh pH 4.5 -4, Rango release inh 17% and miR-21 reporter 7%.
CCOC(=O)Cc1nnc(Nc2ccc(C)cc2)c2ccccc12 was read as Rango-impB inh 0.1%, GLA inh pH 4.5 4, Rango release inh 15% and miR-21 reporter -12%.
`COc1ccc(/C=C2\SC(=S)N(C(C)C(=O)NC3C=CS(=O)(=O)C3)C2=O)cc1` (configuration not stated) gave Rango-impB inh inconclusive, Rango release inh 2% and miR-21 reporter -10%.
Screening O=C(Cc1ccc(F)cc1)N1CCN=C1SCc1ccc([N+](=O)[O-])cc1 returned Rango-impB inh 2.5%, GLA inh pH 4.5 -2, Rango release inh 9% and miR-21 reporter -1%.
Screening S=C(NCc1ccccc1)NCc1ccccn1 returned Rango-impB inh 1.5%, GLA inh pH 4.5 -3, Rango release inh 0% and miR-21 reporter -5%.
Cc1cc(-n2c(SCc3ccccc3F)nc3n[nH]c(C)c3c2=N)ccc1Cl was read as Rango-impB inh -0.2%, GLA inh pH 4.5 0[21.1 µM], Rango release inh -1% and miR-21 reporter -8%.
Screening COCCN=C1OC(=O)N2C(=O)C3=C4[C@@H](C[C@H]5C(=O)N(c6ccccc6)C(=O)[C@H]5[C@H]4[C@@]12Cc1ccccc1)[C@H]1C(=O)N(c2ccccc2)C(=O)[C@H]1[C@H]3C returned Rango-impB inh inconclusive, GLA inh pH 4.5 -3, Rango release inh 9% and miR-21 reporter 1%.
For COc1ccc(C(=O)Nc2ccc(NC(=O)Cc3ccccc3)cn2)cc1 the results were Rango-impB inh 6.2%, Rango release inh 10% and miR-21 reporter -5%.
Screening COc1ccc(C)cc1NC(=O)c1ccc(-c2ccc(C(C)=O)cc2)o1 returned GLA inh pH 4.5 -4 and miR-21 reporter 3%.
O=C(COc1ccc(F)cc1)Nc1ccc2c(c1)OCCO2 was read as Rango-impB inh -1.4%, Rango release inh 1% and miR-21 reporter -50%.
Screening CC(C)C(=O)N(Cc1cc(=O)[nH]c2ccccc12)c1ccccc1 returned Rango-impB inh -3.8%, GLA inh pH 4.5 1, Rango release inh 22% and miR-21 reporter -10%.
CCCNC(=O)COc1cccc(C(=O)NCc2ccccc2)c1 was read as Rango-impB inh -3.3%, GLA inh pH 4.5 -1, Rango release inh 3% and miR-21 reporter -4%.
CCCCN(C(=O)CNC(=O)c1ccco1)C(C(=O)NC1CCCCC1)c1cccnc1 (configuration not stated) was read as Rango-impB inh -1.2%, Rango release inh 3% and miR-21 reporter -2%.

Of the compounds above, these have bromine.
CC(=O)N1CCN(c2ccccc2NC(=O)c2cc(Br)ccc2Cl)CC1 was read as Rango-impB inh -0.9%, GLA inh pH 4.5 2, Rango release inh 0% and miR-21 reporter -2%.
`Nc1nonc1-n1nnc(C(=O)N/N=C/c2cc(Br)ccc2O)c1CSC1=NCCS1` gave Rango-impB inh inconclusive, GLA inh pH 4.5 -5, Rango release inh inconclusive and miR-21 reporter 25%.

New compounds follow
Screening CC(Sc1ccccn1)C(=O)Nc1ccc2c(c1)OCO2 (configuration not stated) returned Rango-impB inh -0.2% and Rango release inh -1%.
For Cc1cccc2c1OCC/C2=N\NC(=O)COc1ccccc1 the results were Rango-impB inh 0.0%, GLA inh pH 4.5 -8, Rango release inh 4% and miR-21 reporter -58%.
COc1cc(CNc2ccc(N3CCOCC3)cc2)cc(Br)c1OC was read as Rango-impB inh 5.5%, GLA inh pH 4.5 -2, Rango release inh 10% and miR-21 reporter 0%.
`COc1ccccc1CC(=O)Nc1ccc2c(C)cc(=O)oc2c1` gave Rango-impB inh inconclusive, Rango release inh 11% and miR-21 reporter -17%.
CCOc1ccc(NC(=NCc2ccc3c(c2)OCO3)SC2CC(=O)N(c3ccc(C(=O)O)cc3)C2=O)cc1 (configuration not stated) was read as Rango-impB inh 0.1%, GLA inh pH 4.5 -12, Rango release inh -11% and miR-21 reporter 1%.
`Cc1ccc(Nc2nnc(SCC(=O)NCCN3C(=O)CSC3=O)s2)cc1C` gave Rango-impB inh -2.3%, GLA inh pH 4.5 -11, Rango release inh 14% and miR-21 reporter -12%.
Screening Clc1ccc2nc(-c3cccc(SC4CCCCC4)c3)c(NCc3ccccc3)n2c1 returned Rango-impB inh inconclusive and Rango release inh inconclusive.
For O=C(NCCc1ccc(C(F)(F)F)cc1)C1CC(=O)N(Cc2ccccc2)C1 (configuration not stated) the results were Rango-impB inh -2.8% and Rango release inh -20%.
O=C(CCc1c[nH]c2ccccc12)N1CCN(c2ccc(F)cc2)CC1 was read as Rango-impB inh 0.5%, GLA inh pH 4.5 5, Rango release inh -10% and miR-21 reporter -7%.
CCNc1nc(NCC)n2c(SCC(=O)Nc3ccccc3C(F)(F)F)nnc2n1 was read as Rango-impB inh 2.0% and Rango release inh -10%.
Cc1cc(OC(C)C(=O)NCCc2c[nH]c3ccccc23)c2c(C)cc(=O)oc2c1 (configuration not stated) was read as Rango-impB inh -3.7%, Rango release inh 0% and miR-21 reporter 1%.
`c1coc(-c2nc(-c3ccco3)c(-c3ccco3)nc2-c2ccco2)c1` gave Rango-impB inh inconclusive, GLA inh pH 4.5 -6, Rango release inh inconclusive and miR-21 reporter -6%.
`O=C(Nc1ccccc1Oc1ccccc1)c1cccs1` gave Rango-impB inh 0.0%, Rango release inh 2% and miR-21 reporter -1%.
`COC(=O)C1CN(C(=O)COc2cc(C)c(Cl)c(C)c2)c2ccccc2O1` (configuration not stated) gave Rango-impB inh 2.8%, Rango release inh -1% and miR-21 reporter 0%.
For CC(C)n1cc(/C=C2/NC(=O)N(c3cccc(Cl)c3)C2=O)c2ccccc21 the results were Rango-impB inh inconclusive, GLA inh pH 4.5 -20, Rango release inh inconclusive and miR-21 reporter 14%.
NC(=O)C1CCN(c2nc(-c3ccccc3C(F)(F)F)cs2)CC1 was read as Rango-impB inh 0.3% and Rango release inh -15%.
`COc1ccccc1N(CC(=O)Nc1ccccc1C(F)(F)F)S(=O)(=O)c1cccs1` gave Rango-impB inh inconclusive and Rango release inh -16%.
